CBX7 inh: inhibitors of human CBX7 binding to H3K27me3 peptide; O95931; AlphaScreen His6-CBX7 / biotin-H3K27me3 peptide binding; active compounds read low; normalised signal (fraction of DMSO) (no concentration beside the values); hit rate 1.1% among 66,000; AID 1224903; in the data active means normalised signal below about 0.5;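 further: 100 nL library stock added to about 20 µL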
Target sequence (O95931 whole entry, looked up): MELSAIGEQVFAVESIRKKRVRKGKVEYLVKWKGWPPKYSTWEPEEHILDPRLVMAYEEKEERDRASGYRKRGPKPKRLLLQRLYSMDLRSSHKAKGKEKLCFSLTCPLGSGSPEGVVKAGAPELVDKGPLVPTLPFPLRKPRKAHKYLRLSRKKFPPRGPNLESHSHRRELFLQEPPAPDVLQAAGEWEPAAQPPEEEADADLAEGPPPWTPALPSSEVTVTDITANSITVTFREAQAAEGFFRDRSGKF
CBX7 inh z-score: second read-out of CBX7 inh, no call of its own (marks repeat the call); z-score; measured here: z-score of CBX7 signal; some inactives read as strong as hits; reference of the scale not given here;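 same signal on another scale; lower means less binding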
Active calls of the source: *; & = joins results of further samples.

A first look, 7 compounds:
canonical_smiles,CBX7 inh,CBX7 inh z-score
CCn1cc(C(=O)N2CCC(C(N)=O)(N3CCCCC3)CC2)c(=O)c2ccc(C)nc21,1.08,0.909
CCC(C)c1ccccc1NC(=O)c1c(-c2ccccc2Cl)noc1C (stereo not given),0.874,-0.149
CCC(=O)N1CCc2cc(S(=O)(=O)CCC(=O)NC(C)(C)C)ccc21,0.986,-0.379
O=C(Nc1ccc(-c2nc3ccccc3s2)cc1)c1ccccc1Cl,1.24,0.829
Cc1ccc(-n2nc3c(c2NC(=O)c2ccccc2Cl)CSC3)c(C)c1,0.967,-0.807
COc1ccc(NC(=O)CCc2c(C)nc3cc(-c4ccc(Cl)cc4)nn3c2C)cc1OC,0.992,-0.166
O=C(Nc1nccs1)c1ccc2c(c1)C(=O)N(c1ccccn1)C2=O,0.957,-0.947

The whole of this part, previewed entries included:
canonical_smiles,CBX7 inh,CBX7 inh z-score
CCn1cc(C(=O)N2CCC(C(N)=O)(N3CCCCC3)CC2)c(=O)c2ccc(C)nc21,1.08,0.909
CCC(C)c1ccccc1NC(=O)c1c(-c2ccccc2Cl)noc1C (stereo not given),0.874,-0.149
CCC(=O)N1CCc2cc(S(=O)(=O)CCC(=O)NC(C)(C)C)ccc21,0.986,-0.379
O=C(Nc1ccc(-c2nc3ccccc3s2)cc1)c1ccccc1Cl,1.24,0.829
Cc1ccc(-n2nc3c(c2NC(=O)c2ccccc2Cl)CSC3)c(C)c1,0.967,-0.807
COc1ccc(NC(=O)CCc2c(C)nc3cc(-c4ccc(Cl)cc4)nn3c2C)cc1OC,0.992,-0.166
O=C(Nc1nccs1)c1ccc2c(c1)C(=O)N(c1ccccn1)C2=O,0.957,-0.947
c1cc(NCc2ccc3c(c2)OCO3)cc(-c2nc3ccccc3s2)c1,1.3,7.48
COc1ccccc1-c1nc(-c2ccc(NC(=O)c3ccncc3)cc2)no1,1.03,0.63
CC1CCN(c2nc3ccc(C(=O)NC(C)C)cc3s2)CC1,0.994,-0.138
NC(=O)C1(N2CCCCC2)CCN(C2CC(=O)N(c3ccccc3)C2=O)CC1 (stereo not given),0.883,-1.04
O=C(CSc1nnc(-c2ccc3c(c2)OCCO3)o1)Nc1nccs1,0.991,-0.189
COc1ccc(OC)c(CCNC(=O)CS(=O)(=O)Cc2nc(-c3ccccc3C)oc2C)c1,0.761,-4.48
COc1ccc(CC(=O)Nc2nnc(C3CCCCC3)s2)cc1OC,0.96,-0.384
CCCCN(CCCC)CCNC(=O)Cn1nc(-c2ccccc2)ccc1=O,0.983,-0.516
CCC(=C(c1ccc(OC)cc1)c1ccc(OC)cc1)c1cn(CCCN(C)C)c2ccccc12,0.273*,-4.56*
CCN1C(=O)CSc2ccc(C(=O)NCCc3ccc(Cl)cc3)cc21,1.07,1.94
COc1ccc(Nc2nnc(-c3ccc(C)c(S(=O)(=O)NC(C)(C)CO)c3)c3ccccc23)cc1,0.739,-2.94
Cc1cc(OCc2nc(-c3ccccn3)no2)cc(C)c1Br,0.983,-0.437
CCc1ccccc1Nc1nc(-c2ccc(OC)cc2)cs1,0.906,-3.25
CCCc1c(C(=O)OCC)nnn1-c1nonc1N,1.03,0.442
Cc1cccc(N(C)C(=O)c2ccc3c(=O)n4c(nc3c2)CCCCC4)c1,0.911,-1.47
CCCCCCCNC(=O)c1cc(=O)[nH]c2ccc(S(=O)(=O)N(CC)CCCC)cc12,0.982,-0.595
COCCCNC(=O)C1CCC(=O)N(c2ccc(OC)cc2)C1c1ccc(OC)cc1 (stereo not given),1.07,0.65
COc1cccc(NC(=O)c2sc3ncn(CC(=O)N4CC(C)CC(C)C4)c(=O)c3c2C)c1 (stereo not given),1,0.0728
CC1CC(C)CN(c2nnc(NC(=O)Nc3ccccc3C(F)(F)F)s2)C1 (stereo not given),0.765,-0.929
Cc1ccccc1CN1C(=O)CSc2ccc(C(=O)NCCC(C)C)cc21,1.17,1.67
Cc1[nH]c2ccccc2c1C(Nc1nccs1)c1ccncc1 (stereo not given),0.753,-2.7
COc1ccc(Cn2c(=O)c3cccnc3n(CC(=O)Nc3cccc(Cl)c3)c2=O)cc1,1.03,0.492
CCc1nnc(NC(=O)CSc2nccn2-c2cccc(Cl)c2)s1,1.12,0.913

Copied from the entries so far (two entries):
canonical_smiles,CBX7 inh,CBX7 inh z-score
COc1ccc(Cn2c(=O)c3cccnc3n(CC(=O)Nc3cccc(Cl)c3)c2=O)cc1,1.03,0.492
CCc1nnc(NC(=O)CSc2nccn2-c2cccc(Cl)c2)s1,1.12,0.913

(listing goes on)
canonical_smiles,CBX7 inh,CBX7 inh z-score
Cc1c(C(=O)N2CCCCC2)sc2ncn(CC(=O)Nc3cccc(C(F)(F)F)c3)c(=O)c12,1.01,0.236
O=C(c1cc(-c2ccc3c(c2)OCO3)on1)N1CCN(c2ccc(F)cc2)CC1,0.933,-1.47
COc1ccc(-c2csc(Nc3ccc(N)cc3)n2)cc1OC,0.641,-8.87
Cn1cc(C(=O)NCCC2=CCCCC2)c2c3ccccc3n(C)c2c1=O,1,0.0288
COc1ccc(C(=O)N2CCc3c([nH]c4ccccc34)C2)cc1,0.879,-4.7
COc1ccc(-c2cc(-c3ccc(OC)cc3O)[nH]n2)cc1,0.89,-4.51
COCCNC(=O)C1CCN(c2ccc(N3CCOCC3)nn2)CC1,0.955,-0.839
CCc1ccc(NC(=O)c2ccc(CNc3c(N4CCC(C)CC4)c(=O)c3=O)cc2)cc1,1.05,2.11
Cc1onc(-c2ccccc2)c1C(=O)Nc1ccccc1C(N)=O,0.929,-0.811
Clc1ccc(OCc2nc(-c3cccnc3)no2)c(Br)c1,1.06,0.0725
O=S(=O)(c1cccc(-c2cn3cc(Cl)ccc3n2)c1)N1CCCC1,1.03,1.13
CCOc1ccc(CCNC(=O)Nc2ccccc2)cc1OCC,1.15,1.17
COCC(C)NC(=O)c1c(-c2ccccc2Cl)noc1C (stereo not given),0.999,-0.0228
O=C(O)c1ccc2c(c1)NC(=O)C(CSCc1cccc(F)c1)N2 (stereo not given),1.49,0.549
O=C(Nc1cccc(-c2nc3ccccc3o2)c1)c1cccnc1Cl,1.2,3.37
CC1=Nc2cc(C(=O)NCCCN(C)C3CCCCC3)ccc2Sc2ccc(Cl)cc21,1.27,3.28
Cc1cccc(OCCn2c(-c3ccc(Cl)cc3)nc3ccccc3c2=O)c1,1.33,3.18
O=C(Cn1c2c(c(-c3ccccc3Cl)cc1=O)CCC2)N1CCCCCC1,0.861,-0.873
COc1ccc(-c2nc(CS(=O)(=O)CC(=O)Nc3ccc(Cl)cc3)c(C)o2)cc1,0.971,-0.0608
CCOC(=O)C1CCN(c2c(NCCCN3CCCCCC3)c(=O)c2=O)CC1,1.22,3.3
Cc1cccc(N2CCN(C(=O)C3CCCN(C(=O)c4cc5sccc5n4C)C3)CC2)c1C (stereo not given),0.593,-11.7
Fc1ccc(Nc2nnc(Cc3cccnc3)c3ccccc23)cc1,1.05,0.995
CCCN(C(=O)CCc1nc(-c2ccc(OC)cc2)no1)c1cccc(Cl)c1,1.05,1.47
CCCCc1nc(N2CCCC2)c(C#N)c2c1COC(C)(C)C2,1.12,1.31
COc1ccccc1-c1nc2cc(NC(=O)c3ccccc3Cl)ccc2o1,1.02,0.532
Cc1ccc(NC(=O)CSc2nccn2-c2cccc(Cl)c2)cc1Cl,0.888,-2.02
Cc1cccc(-n2nc3c(c2NC(=O)c2ccccc2C(F)(F)F)CSC3)c1,1.05,1.15
CCOc1ccc(NCC(O)Cn2c(C)c(C)c3ccccc32)cc1 (stereo not given),0.432*,-6.09*
CCOC(=O)c1sc2ncn(CC(=O)NCCc3ccc(OC)c(OC)c3)c(=O)c2c1C,1.08,3.49
COc1ccccc1NC(=O)Cn1cc(S(=O)(=O)c2ccc(F)cc2)c(=O)c2ccccc21,0.827,-2.84

Following part:
The line under a structure holds: CBX7 inh	CBX7 inh z-score
- CCOCCCNC(=O)C1CCCN(c2nnc(-n3cccc3)s2)C1 (stereo not given)
    1.12	2.52
- COc1ccc(-c2[nH]ncc2-c2ccccc2)c(O)c1C
    0.769	-1.08
- CCCCN(C)S(=O)(=O)c1ccc(C(=O)Nc2nnc(-c3ccc(Cl)s3)o2)cc1
    0.982	-0.457
- Cc1nc2ncnn2c(C)c1CCC(=O)Nc1ccccn1
    1.06	1.15
- Cn1nc(-c2ccc(C(N)=O)cc2)c2ccccc2c1=O
    0.999	-0.0393
- CCCCNC(=O)CN1CCCN(Cc2ccc(F)cc2Cl)C1=O
    1.03	0.612
- COc1ccc(C2=NOC(C(=O)Nc3ccccc3C(F)(F)F)C2)cc1OC (stereo not given)
    1.03	0.977
- Cc1ccc(C)c(N2CCN(c3cc(C)nc4nc(C)nn34)CC2)c1
    0.96	-1.33
- O=C(NCCCN1CCc2ccccc2C1)C1CCCN(S(=O)(=O)c2cccs2)C1 (stereo not given)
    0.965	-1.59
- CCC1=Nc2cc(C(=O)N3CCN(CC)CC3)ccc2Sc2ccc(Cl)cc21
    0.832	-2.41
- COc1ccccc1N1C(=O)CC(N2CCN(C(c3ccccc3)c3ccccc3)CC2)C1=O (stereo not given)
    1.06	0.913
- CC(C(=O)NCC1(c2ccccc2)CCCC1)N1CCOCC1 (stereo not given)
    1.05&0.967	0.128&-0.811
- COc1ccccc1CNC(=O)C1CCCN(Cc2nc(-c3cccs3)oc2C)C1 (stereo not given)
    1.05	0.439
- CCN(CC)CCCNC(=O)C1CCN(c2nc3ccc(OC)cc3s2)CC1
    0.948	-0.56
- O=C(Nc1ccc(-c2noc(CCc3ccccc3)n2)cc1)c1cccnc1
    0.947	-0.521
- COC(CNC(=O)c1ccc2c(c1)N(Cc1ccc(F)cc1)C(=O)c1ccccc1S2(=O)=O)OC
    1.21	3.34
- CCOc1ccc(Nc2nc3cc(C)ccc3nc2NS(=O)(=O)c2ccc(C)cc2)cc1
    1.06	1.15
- CCCn1c(C(O)c2cc(OC)ccc2OC)nc2ccccc21 (stereo not given)
    1.12	0.567
- O=C(CN1CCN(Cc2cccc(Cl)c2)C1=O)NCc1ccc(F)cc1
    1.05	1.27
- O=C1CC(c2ccc(Cl)c(Cl)c2)C2=C(CCCC2=O)N1 (stereo not given)
    0.943	-0.718
- COc1ccccc1NS(=O)(=O)c1c(C)noc1C
    1.05	2.5
- Cc1cc(C)n2c(Nc3ccccc3)c(-c3ccccc3)nc2n1
    1.07	0.735
- CC1CC(=O)CCN1C(=O)c1ccccc1 (stereo not given)
    1.02	0.734
- Cc1ccc(C)c2[nH]c(=O)c(CCNC(=O)c3ccc(S(=O)(=O)N4CCOCC4)cc3)cc12
    0.957	-1.09
- Cc1ccc(-c2csc(Nc3c(Cl)cccc3Cl)n2)c(C)c1
    0.875	-2.66
- CCN(CC)CCNC(=O)c1cc(-c2cccnc2)nc2ccccc12
    1.14	1.01
- CCCn1cnc2cc(NCc3cccc(Br)c3)ccc21
    0.329*	-19.3*
- Cc1nn(Cc2ccc(Cl)cc2)c(C)c1NC(=O)c1cc(-c2ccc(F)cc2)on1
    0.981	-0.856
- O=C(C1CCC1)N1CCc2cc(S(=O)(=O)NCc3cccnc3)ccc21
    1.06	2
- CCN1CCN(c2cc(C)c3cc(NC(=O)Cc4ccc(OC)c(OC)c4)ccc3n2)CC1
    1	0.0052
- Cc1ccc(Cl)cc1N1CCN(C(=O)Cn2ncc3ccsc3c2=O)CC1
    0.713	-8.25
- CCCNC(=O)Cn1cnc2sc(C(=O)Nc3cc(C)ccc3OC)c(C)c2c1=O
    1.05	1.79
- COc1ccc2cc(CCNC(=O)c3cccs3)c(=O)[nH]c2c1
    1.21	1.39
- Cn1c(=O)c(-c2ccc3ccccc3n2)cc2ccccc21
    1.16	0.994
- CCCc1c(C(=O)OCC)[nH]c2c1C(=O)CC(c1ccc(OCC)cc1)C2 (stereo not given)
    1.08	1.07
- Cc1ccccc1-c1nc(C(=O)N2CCC(C(N)=O)CC2)c(C)o1
    1.01	0.0929
- Cn1c(NC(=O)Nc2ccccc2Cl)cc2sccc21
    1.03	1.3
- COc1ccc(CC(=O)NCCc2cc3c(OC)ccc(OC)c3[nH]c2=O)cc1
    1.03	0.436
- CCOc1ccccc1C(=O)N1CC(=O)Nc2ccc(Cl)cc2C1c1ccc(F)cc1 (stereo not given)
    1.05	0.444
- COc1ccccc1-c1cc2nc(C)c(CCC(=O)Nc3cccc(C)c3C)c(C)n2n1
    1.06	0.94
- CCOc1nnc(-c2ccc(C)c(S(=O)(=O)NCc3cccnc3)c2)c2ccccc12
    1.01	0.21
- CC(C)(C)c1ccc2c(c1)N(CC(=O)N1CCN(c3ccccc3F)CC1)C(=O)CO2
    0.963	-1.1
- COCCN1Cc2cccc(C(=O)NCc3cccs3)c2C1=O
    1.06	2.37
- O=C(Nc1ccccc1C(=O)N1CCCCCC1)c1cccc(S(=O)(=O)N2CCOCC2)c1
    1.15	2.29
- COc1cccc(-c2cc(C(=O)O)c3ccccc3n2)c1
    1.22	3.94
- CCOc1ccc2nc(NC(=O)c3ccc(C)cc3)sc2c1
    1.04	0.377
- O=C(CC1Oc2ccc(Cl)cc2NC1=O)NC1CCCCCC1 (stereo not given)
    1.02	0.612
- CCc1ccccc1NC(=O)CCc1c(C)nc2cc(-c3ccccc3)nn2c1C
    1.01	0.202
- COc1ccc(N2CCN(C3CC(=O)N(c4cccc(C)c4)C3=O)CC2)cc1 (stereo not given)
    1.06	1.59
- O=C(CSc1nnc(-c2ccc3c(c2)OCCO3)o1)N1CCCCC1
    0.966	-0.703
- COc1ccccc1NC(=O)c1sc2ncn(CC(=O)N3CCCC3)c(=O)c2c1C
    1.02	0.162
- O=C(NCc1ccc(Cl)cc1)c1cc2nc(-c3ccccc3)cc(C(F)(F)F)n2n1
    1.14	5.97
- COc1ccc(-n2nc(C(=O)N3CCCCCC3)c3ccccc3c2=O)cc1
    0.993	-0.19
- Cc1nc(Nc2nc3ccccc3c(=O)[nH]2)nc2c(C)cccc12
    0.933	-0.808
- c1ccc(-c2cn3nc4c(nc3n2)CCCC4)cc1
    1.11	1.28

Source: PubChem

Some of the compounds tested, so the mix of outcomes need not match the whole.
